TRPV1 PAM: enhances activation of the human vanilloid receptor TRPV1; TRPV1-expressing cells, Fluo-8 calcium influx, capsaicin EC20 potentiation; host cell line not named in the record; control for the full effect not named in the record; potentiation, % at 8.33 µM; hit rate 0.02% among 320,000; active means potentiation above 80%; inconclusive means 30% to 80%; inactive means below 30%; note: 0% is about no effect
Target sequence (Q8NER1 whole entry, looked up): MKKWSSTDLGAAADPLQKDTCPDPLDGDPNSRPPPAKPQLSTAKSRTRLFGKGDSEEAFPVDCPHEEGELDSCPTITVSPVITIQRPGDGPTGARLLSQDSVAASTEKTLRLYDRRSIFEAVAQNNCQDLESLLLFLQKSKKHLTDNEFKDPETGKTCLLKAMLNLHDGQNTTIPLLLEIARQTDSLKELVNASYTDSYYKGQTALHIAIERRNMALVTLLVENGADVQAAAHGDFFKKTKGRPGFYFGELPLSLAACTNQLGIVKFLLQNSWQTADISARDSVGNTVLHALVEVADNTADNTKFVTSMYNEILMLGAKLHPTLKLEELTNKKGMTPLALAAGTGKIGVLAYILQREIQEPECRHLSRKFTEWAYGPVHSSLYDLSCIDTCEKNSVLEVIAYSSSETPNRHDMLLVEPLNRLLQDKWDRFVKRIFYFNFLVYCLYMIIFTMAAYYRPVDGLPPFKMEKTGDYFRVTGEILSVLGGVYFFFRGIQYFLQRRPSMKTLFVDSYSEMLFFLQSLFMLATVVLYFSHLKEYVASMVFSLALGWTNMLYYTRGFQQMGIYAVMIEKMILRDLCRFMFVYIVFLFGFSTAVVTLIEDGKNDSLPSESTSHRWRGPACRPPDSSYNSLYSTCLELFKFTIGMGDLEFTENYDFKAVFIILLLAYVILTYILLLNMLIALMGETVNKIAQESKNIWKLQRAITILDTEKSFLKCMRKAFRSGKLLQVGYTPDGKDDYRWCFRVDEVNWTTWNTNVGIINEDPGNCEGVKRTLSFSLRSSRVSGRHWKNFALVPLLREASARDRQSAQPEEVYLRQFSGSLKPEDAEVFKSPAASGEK
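Cells expressing TRPV1 were dye-loaded with Fluo-8 and read kinetically: 10 s baseline, 3 min after compound (agonist portion), then 2 min after EC20 capsaicin (allosteric enhancer portion). Calcium-bound dye fluorescence at 480/520 nm.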
gsp ag: activates gsp, the McCune-Albright syndrome mutation. gsp mutant cells, cAMP HTRF, 30 min; control for the full effect not named in the record. hit rate 0.13% among 340,000. Potency, µM (highest dose often 76.9 µM), for inactives: top-dose activation (cAMP increase), actives largely listed as activators; active = well fitted activation curve with a large enough effect; inconclusive = small, poorly fitted or top-dose-only effect, or another doubt; inactive = no such curve, though single readings can be large or run the other way; cell line not stated here;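 note: phosphodiesterase inhibitor Ro 20-1724 added with compounds to block cAMP breakdown; potency is the fitted concentration of half-maximal effect; nearly all actives have a fitted effect of over 60% in size; about a fifth of the inactives were tested at one dose only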
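Cells in DMEM/10% FBS with G418 were pretreated with compounds in DMSO plus […] (300 uM stock) for 30 min at 37C. cAMP was measured by HTRF (cAMP-d2 plus anti-cAMP antibody-K) after 30 min at room temperature.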
Menin MLL FP FL: displaces fluorescein MLL peptide from human menin; FP activity change, % at 61.4 µM; 290,000 tested, under 10 active; Fluorescence polarization, fluorescein-MLL peptide displacement from menin; inconclusive = falling polarisation curve, or a change in total fluorescence; inactive = total fluorescence flat and polarisation flat or rising; no compound was filed as active; the % refers to the polarisation; negative = inhibition;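 note: % of control where 0% means no effect; inhibitors lower the polarisation; unlabelled MLL peptide was the positive control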
ClpP mod: qHTS Assay for Activators of ClpP; AID 651965, 2013; ATP-dependent Clp protease proteolytic subunit (Bacillus subtilis (strain 168)), P80244; Potency, µM (series often up to 57.5 µM), for the others: at the top dose activity change, negative = active; purified B. subtilis ClpP, FRET peptide cleavage, 20 min; hit rate 1.9% among 340,000; active = well fitted falling curve with a large enough effect; inconclusive = small, poorly fitted or top-dose-only effect; inactive = no such curve, though single readings can be large or run the other way; note: potency is the fitted concentration of half-maximal effect; the source files actives as falling curves though it sought activators and does not explain the sign; nearly all actives have a fitted effect of over 65% in size; many hits overshoot -100%
Target sequence (P80244 whole entry, looked up): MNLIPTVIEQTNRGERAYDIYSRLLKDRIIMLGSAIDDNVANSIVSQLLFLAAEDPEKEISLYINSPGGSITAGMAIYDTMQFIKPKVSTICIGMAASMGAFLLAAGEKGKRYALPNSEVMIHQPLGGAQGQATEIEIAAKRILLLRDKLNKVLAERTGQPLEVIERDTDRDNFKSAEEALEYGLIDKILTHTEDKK
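ClpP 10 microg/mL final, pH 8 Tris/KCl buffer with BSA, glycerol, Tween-20; compound pinned in; FRET-FV substrate; RT 20 min; Ex320/Em430; ΔFRET vs ADEP 5.8 microM, DMSO, no enzyme.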
gsp antag: antagonizes gsp, the McCune-Albright syndrome mutation | gsp-mutant cells, cAMP HTRF, 30 min; control for the full effect not named in the record | Potency, µM (titrated, usually from 76.9 µM), for the others: at the top dose activity change, negative = inhibition, actives largely listed as inhibitors | hit rate 0.4% among 340,000 | AID 624288; active = falling curve of any shape with a large fitted effect; inconclusive = falling curve, mostly with a smaller effect; inactive = flat or rising curve; cell line not stated here;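 note: intracellular cAMP measured with PDE inhibitor Ro 20-1724 present during compound exposure; potency is the fitted concentration of half-maximal effect; % is set by controls: 0 for no effect and ±100 for the full control effect; nearly all actives have a fitted effect of over 65% in size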
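HTRF cAMP read-out (cAMP-d2 plus anti-cAMP antibody-K in lysis buffer, 30 min RT). Before lysis, cells are exposed to compounds with […] for 30 min at 37C in DPBS containing Ca/Mg, BSA and Tween 20.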
Sfp PPTase inh: Sfp phosphopantetheinyl transferase inhibition. Q9F4F7. Biochemical Sfp PPTase activity, qHTS. Potency, µM, inactives show max response, negative = inhibition, most hits filed as inhibitors. hit rate 3.5% among 310,000; active = well fitted inhibition curve with a large enough effect; inconclusive = small, poorly fitted or top-dose-only effect, or another doubt; inactive = no such curve, though single readings can be large or run the other way;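 note: the enzyme is Sfp with the accession as filed and its product quenches rhodamine fluorescence; potency is the fitted concentration of half-maximal effect; 0% = enzyme reaction without inhibitor and -100% = no enzyme wells; top concentration of the series not given in the record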
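Buffer: 50 mM Hepes-Na pH 7.6, 10 mM MgCl2, 0.01% Nonidet P-40, 0.01% BSA. Enzyme 15 nM, pre-exposed to compound 15 min; substrates then added and fluorescence change tracked over 30 min.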
CtBP-E1A inh: CtBP/E1A binding inhibition. AlphaScreen GST-E1A/His-CtBP binding, 1536-well; hits give low values; control for the full effect not named in the record. activity change, % (concentration not given with the values). hit rate 0.49% among 340,000. AID 651724; in the data active means activity change below about -65%; inconclusive means about -30% to -65%; inactive means above about -30%; note: % is set by controls: 0 for no effect and ±100 for the full control effect
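AlphaScreen with 125 nM GST-E1A and 125 nM His-CtBP (5X stocks) in Tris pH 8.0, 300 mM NaCl, BSA, Tween 20, TCEP. Compounds preincubated 2 h at 37 deg C, then glutathione donor/nickel acceptor beads added for 1 h at 37 deg C in dark.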
Starred values were filed as active, the others as inactive; u = inconclusive; x = not tested or not shown; [ ] = remark or other dose.

SMILES	TRPV1 PAM	gsp ag	Menin MLL FP FL	ClpP mod	gsp antag	Sfp PPTase inh	CtBP-E1A inh
Cc1ccc(CNC(=O)c2ccc(Cl)cc2[N+](=O)[O-])cc1	-13	10%	-2.7	-2.6%	11%	0%	3
COc1ccc(-c2noc(Cc3ccc(Cl)cc3)n2)cc1OC	-9	u	u	-4.1%	4%	-11%	0
COC(=O)c1sc(=S)n(-c2cc(F)ccc2F)c1N	8	0%	1.9	2.1%	19%	50µM*	2
CC(=O)Nc1c(Cl)c2c(c(Cl)c1Br)-c1ccc(Cl)cc1C2	x	8%	x	x	-24%	x	6
Cc1cccc(NC(=O)C2(c3ccccc3)CC2(Cl)Cl)c1 (stereo not given)	u	1%	-1.2	1.6%	-17%	16%	8
Cc1cccn2cc(CSc3nnc(Nc4ccc(C(C)C)cc4)s3)nc12	8	-2%	-1.2	0.7%	u	-2%	-1
C/C(=N/NC(=O)c1sc(NS(=O)(=O)c2ccccc2)nc1C)c1ccccc1	8	-20%	5.3	-6.2%	u	-3%	4
CC(NC(=O)OC(C)(C)C)C(=O)Oc1ccc2ccc(=O)oc2c1 (stereo not given)	-9	u	-0.9	792%	6%	5%	-2
FC(F)(F)c1ccc(Sc2n[nH]c(C(F)(F)F)n2)nc1	x	-4%[15.4 µM]	5.3	x	-17%	-11%	6
CC(C)CC1(C)NC(=O)N(CC(=O)Nc2ccc3c(c2)CCC3)C1=O (stereo not given)	-15	-70%[15.4 µM]	0.1	x	x	16%	59
Nc1ccc2c(c1)OC1(CCCCC1)O2	5	-24%[15.4 µM]	-4.4	x	4%	-6%	2
CCCOc1ccc(C(CC(=O)O)NC(=O)c2sc3ccccc3c2Cl)cc1 (stereo not given)	1	26%[15.4 µM]	3.4	x	11%	9%	x
CN1CCN(C(=O)/C=C/c2cccc(Cl)c2)CC1	-28	-48%[inhibitor]	2.9	-1.3%	6%	9%	0
COCCn1c(SCC(=O)N2CC(=O)Nc3ccccc32)nc2ccccc21	6	-53%[inhibitor]	5.0	-3.2%	0%	-1%	-12
CSc1ccc(CN2CCC(Oc3cccc(C(=O)N4CCCC4)c3)CC2)cc1	-13	-13%	x	2.8%	-5%	5%	-5
NC(=O)N/N=C/C=C/c1ccc(F)cc1	2	9%[15.4 µM]	0.1	x	9%	-7%	-3
O=C(CCCCC(=O)NCCCc1ccccc1)NCCCc1ccccc1	u	-31%[inhibitor]	1.3	-0.1%	4%	16%	x
O=C1c2ccccc2CCC1C(O)c1ccccn1 (stereo not given)	12	34%	5.1	11%	13%	4%	-1
CCOc1ccc(N2C(=O)CN(CC(=O)OC)C2=S)cc1	10	-34%[inhibitor]	0.8	x	-10%	14%	8
COc1ccc(-c2cc(-c3ccc(Br)cc3)nc3ncnn23)cc1OC	-3	-18%	2.0	u	5%	5%	-2
Cc1ccc(S(=O)(=O)/N=C(/NC(=S)Nc2cccc(C)c2)c2ccccc2)cc1	-1	-10%[15.4 µM]	1.6	1.7%	-7%	50µM*	0
CN1CCC(Oc2ccccc2Sc2ccc(C(F)(F)F)cc2)CC1	-20	-64%[inhibitor]	x	1.7%	5%	-25%	-1
O=C(Nc1c2n(c(=S)n(-c3ccccc3)c1=O)CCCCC2)c1ccccc1	6	2%[15.4 µM]	0.5	-0.8%	-2%	-7%	2
CCOc1ccc(Nc2nc(Cc3nnc(SCC(=O)NCc4ccco4)n3CC)cs2)cc1	0	4%	3.7	0.7%	3%	-17%	-12
Cn1nc(C(=O)NCc2ccccc2)c2ccccc2c1=O	1	7%	6.5	-0.3%	3%	1%	-2
COc1ccc2nc(N3CCCCC3)c(/C=C3\SC(=S)NC3=O)cc2c1	-11	10%	u	x	-7%	-4%	4
CCOc1ccc(CN2CCN(Cc3c[nH]c4ccccc34)CC2)cc1	-3	1%[15.4 µM]	-13	-2.3%	17%	u	-4
O=C(Nc1ccc(S(=O)(=O)N2CCCC2)cc1)c1cncc(Br)c1	-21	-27%	x	-1.1%	-4%	x	-6
Cc1cnc(SCc2cnc(C)nc2N)nc1	1	19%	-3.2	-1.2%	8%	26%	-3
CCN(Cc1ccncc1)Cc1nc(CC2CC2)no1	2	-31%[15.4 µM]	-0.8	x	14%	-4%	-8
Fc1ccc(COc2cccc(-c3n[nH]c(=S)o3)c2)cc1	9	26%	4.2	u	-27%	40µM*	x
CCOC(=O)CN1N=C(/C=C/c2ccc(C(C)C)cc2)CCC1=O	-11	-9%	2.0	x	-21%	-1%	9
CC(C)C(=O)Nc1cc(-c2nc3ncccc3o2)ccc1Cl	-4	-2%[15.4 µM]	-1.4	-0.3%	4%	0%	13
CSc1ccc(CCNC(=O)CSc2ccsc2[N+](=O)[O-])cc1	x	7%	0.1	-2.7%	5%	17%	-1
COc1ccc(C/C(C)=N/NC(=S)Nc2ccc(C)c(C)c2)cc1	11	0%	0.1	-6.8%	10%	-6%	2
O=C1NCC(=O)N2C(c3ccccc3)c3[nH]c4ccccc4c3C[C@@H]12 (stereo not given in full)	-4	-8%	-6.7	x	10%	2%	-2
Cc1ccc(S(=O)(=O)N(CC2CO2)c2cccc([N+](=O)[O-])c2)cc1 (stereo not given)	26	-1%[15.4 µM]	-0.3	x	3%	10%	1
O=C(/C=C1\NC2(CCCC2)Cc2ccccc21)C(=O)N/N=C/c1ccccc1O	u	-7%	x	0.9%	-14%	2%	0
CC(=O)N/C(=C\c1ccc(F)cc1)C(=O)OC(C)C	-4	-60%[inhibitor]	1.3	-0.4%	6%	6%	4
CCCc1ccc(OCC(O)CN2CCN(C(=O)OCC)CC2)cc1 (stereo not given)	5	19%	-1.4	-0.7%	13%	8%	0
CCOCCCNC(=O)c1cc(Sc2ccc(C)cc2)nc2ccccc12	-13	0%[15.4 µM]	0.5	-5.6%	-3%	2%	-15
S=C(NCc1ccccc1)Nc1ccncc1	-3	8%	-0.4	-0.7%	-2%	16%	2
Cc1cc2c(ncn2Cc2ccccc2)c(NS(C)(=O)=O)c1C	u	-26%	7.5	-5.6%	-15%	-16%	-1
CCOc1ncccc1C(=O)NNC(=O)c1cccc(S(=O)(=O)Nc2ccccc2OC)c1	-1	7%	x	-0.3%	8%	x	-4
COc1ccsc1C(=O)N1CCN(Cc2ccc3c(c2)OCO3)CC1	0	u	0.6	-3.1%	1%	18%	-9
CCN(CC)CCNC(=O)c1cc2c(=O)n(C)c3ccccc3c2s1	-2	1%	-3.6	x	7%	6%	-15
O=C(Nc1ccc(Cl)cc1)Nc1ccc(-c2cnco2)cc1	-3	16%	-3.8	-12%	-16%	13%	2
COc1ccc(C(=O)Nn2c(SCC(=O)NCc3ccccc3)nc3ccccc3c2=O)cc1	6	-27%	0.4	2.1%	4%	-5%	-9
CCOc1ccc(OCC)c(S(=O)(=O)NCCCN2CCOCC2)c1	u	u	2.7	1.0%	8%	15%	2
Cn1ncc2c(Nc3ccc(Br)cc3)nc(Nc3ccc(Br)cc3)nc21	-3	16%[15.4 µM]	6.1	x	-13%	12%	-8

Next part
SMILES	TRPV1 PAM	gsp ag	Menin MLL FP FL	ClpP mod	gsp antag	Sfp PPTase inh	CtBP-E1A inh
CCOc1ccc(Nc2ccnc3cc(Cl)ccc23)cc1	-7	u	2.3	-2.2%	5%	11%	7
CCCCCCC[C@@H](C/C=C/CCC(=O)N(C)C/C(=C/Cl)C/C(=C\C(=O)N1C[C@H](O)CC1=O)OC)OC	x	x	x	2.4%	u	x	-4
CCN(CC(=O)Nc1c(F)cccc1F)C(=O)CNC(=O)c1ccc(C)s1	-21	-6%	x	1.0%	9%	8%	16
O=C1CC(c2ccco2)c2ccc3ccccc3c2N1 (stereo not given)	-12	4%	-0.9	-4.3%	8%[15.4 µM]	-4%	-8
O=C(Nc1ccc(Cl)cc1C(=O)NCCN1CCOCC1)c1ccco1	0	6%	1.7	0.8%	1%	6%	2
CCn1nccc1C(=O)Nc1ccc(Cl)cc1Cl	-4	u	0.1	-0.5%	11%	4%	21
C[C@@H]1CN([C@@H](C)CO)C(=O)c2cccc(NS(C)(=O)=O)c2O[C@H]1CN(C)C(=O)Nc1ccc(F)cc1	x	x	x	-3.2%	8%	x	7
Brc1ccccc1/C=N/Nc1ccccn1	1	-1%[15.4 µM]	2.1	-2.1%	-13%	16%	-22
COc1cc2[nH]c(=O)c(C(=O)NCc3ccc(F)cc3)c(O)c2cc1OC	3	-3%	-6.1	-6.8%	-19%	12%	3
Nc1ccc(C(=O)N2CCN(S(=O)(=O)c3ccc4c(c3)OCCO4)CC2)cc1[N+](=O)[O-]	5	-1%	x	u	-10%	14%	-3
C=CCOC(=O)/C(=C/c1cccc2ccccc12)NC(=O)c1ccccc1	-22	-11%	3.2	-1.5%	-43%	-3%	4
CC(Sc1ncccn1)C(=O)NNC(=O)c1cccc(Cl)c1 (stereo not given)	x	6%	x	-3.8%	-11%	x	-7
Cc1cc(C)cc(NC(=O)CN2CCC(NC(=O)c3ccccc3F)CC2)c1	5	-16%	-3.2	1.4%	3%	13%	x
CN(C)C(CNC(=O)c1ccccc1C(F)(F)F)c1ccco1 (stereo not given)	3	-15%[15.4 µM]	-0.8	x	16%	4%	1
O=C(CCN1C(=O)COc2ccccc21)NCc1cccnc1	1	19%	2.1	0.1%	3%	8%	10
CCOC(=O)CCCNC(=O)CSc1nnc(-c2ccccc2)c(-c2ccccc2)n1	3	2%[15.4 µM]	-0.1	x	-10%	-3%	-6
CCOc1ccc(/C(O)=C2/C(=O)C(=O)N(CCCN3CCOCC3)C2c2ccc(F)cc2)cc1C (stereo not given)	4	u	-4.2	0.7%	13%	19%	-12
N#C/C(=C(/O)COc1ccccc1)c1nnc2n1CCCCC2	15	-38%[inhibitor]	3.1	x	0%	u	3
COc1ccc(NC(=O)C2CCN(S(=O)(=O)c3ccccc3)CC2)cc1	-9	19%	1.0	1.3%	2%	11%	12
